SARS PLP yeast: qHTS of Yeast-based Assay for SARS-CoV PLP; S. cerevisiae expressing SARS-CoV PLpro, growth rescue; control for the full effect not named in the record; Potency, µM (titrated, usually from 32.9 µM), without a hit: at the top dose activity, positive = growth rescue; hit rate 0.19% among 330,000; active means well fitted rising curve with a large enough effect; inconclusive means small, poorly fitted or top-dose-only effect; inactive means no such curve, though single readings can be large or run the other way; also: 0% is about no effect; nearly all actives have a fitted effect of over 55% in size; growth read by luminescence after 48 h
NS1 function inh: qHTS Assay for Inhibitors of Influenza NS1 Protein Function. hit rate 0.4% among 270,000. Potency, µM (doses to about 46.1 µM), for the others: at the highest dose activity, positive = more growth. AID 2326, 2010. S. cerevisiae slowed by influenza A NS1, growth recovery by OD600; active means well fitted rising curve with a large enough effect; inconclusive means small, poorly fitted or top-dose-only effect; inactive means no such curve, though single readings can be large or run the other way; also: nearly all actives have a fitted effect of over 50% in size
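Read-out: OD600 growth recovery of NS1-expressing budding yeast. Cells grown overnight at 30C in -URA glucose medium, washed, resuspended and diluted 1:100 in 2% galactose assay medium, pH 6.0. Same strain lacking NS1 served as positive control.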
RE007 growth inh: qHTS Assay for Inhibitors of the HIV-1 protein Vpr; S. pombe RE007 Vpr strain, BacTiter-Glo ATP luminescence, 24 h; control for the full effect not named in the record; hit rate 0.21% among 360,000; Potency, µM (highest dose often 92.2 µM), inactives show at the highest dose activity change, negative = less growth; AID 651644, 2012; active = well fitted falling curve with a large enough effect; inconclusive = small, poorly fitted or top-dose-only effect; inactive = no such curve, though single readings can be large or run the other way;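 also: % is scaled to controls: 0 for no effect and ±100 for the full control effect; nearly all actives have a fitted effect of over 50% in size; the assay follows cell death caused by Vpr and the record does not say whether a fall means rescue or toxicity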
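Fission yeast strain RE007, carrying one chromosomally integrated HIV-1 vpr copy, was seeded at OD 0.01 in PMG+AL medium with 23 nL pinned compound. After 24 h at 30 °C and 99% humidity, viability was read by BacTiter-Glo luminescence.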
Marburg entry inh: qHTS for inhibitors of binding or entry into cells for Marburg Virus | Marburg virus pseudotyped entry inhibition, cell reporter; control for the full effect not named in the record; about a third of the inactives were read at about 46 µM | Potency, µM (series often up to 37.8 µM), for inactives: at the highest dose activity change, negative = inhibition, most hits filed as inhibitors | hit rate 1.8% among 300,000 | AID 540276, 2011; active = well fitted inhibition curve with a large enough effect; inconclusive = small, poorly fitted or top-dose-only effect, or effect the other way; inactive = flat fitted curve, though single readings scatter; tested in HEK293 cells; about a fifth of its hits are not listed in these tables; also: % is scaled to controls: 0 for no effect and ±100 for the full control effect; luciferase read-out
Cruzain noTriton: qHTS Assay for Promiscuous and Specific Inhibitors of Cruzain (without detergent); Cruzipain (Trypanosoma cruzi), P25779; purified cruzain, Z-FR-AMC fluorescence, no detergent; Potency, µM, without a hit: max response, negative = inhibition, usual class: inhibitors; hit rate 2.3% among 200,000;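 also: plate controls were enzyme without inhibitor for no effect and buffer without enzyme for full effect; nearly all actives have a fitted effect of over 40% in size; top concentration of the series not given in the record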
Target sequence (P25779 123-467 limits assumed): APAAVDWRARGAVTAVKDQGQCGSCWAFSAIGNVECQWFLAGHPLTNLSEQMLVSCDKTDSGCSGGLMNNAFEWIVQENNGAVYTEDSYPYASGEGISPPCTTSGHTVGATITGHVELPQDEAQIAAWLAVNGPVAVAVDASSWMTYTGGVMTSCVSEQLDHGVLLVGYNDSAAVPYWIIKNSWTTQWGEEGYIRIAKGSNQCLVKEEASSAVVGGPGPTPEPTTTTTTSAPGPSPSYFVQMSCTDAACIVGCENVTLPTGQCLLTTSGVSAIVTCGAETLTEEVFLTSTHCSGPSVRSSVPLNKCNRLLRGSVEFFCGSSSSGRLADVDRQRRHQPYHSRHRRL
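Purified cruzain at 1.5 nM, pre-incubated 15 min with compound at room temperature in 100 mM sodium acetate pH 5.5, 5 mM DTT, 0.00005% Triton X-100. Reaction started with 2 uM Z-FR-AMC; AMC fluorescence increase over 60 s gives rate.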
2A StopGo: High Throughput Screening for Foot and Mouth Disease Virus Antivirals. Potency, µM (highest dose often 57.9 µM), inactives show at the highest dose signal change, negative = less light. human cells with a luciferase reporter of 2A StopGo recoding; control for the full effect not named in the record. hit rate 1.2% among 410,000. AID 1159524, 2015; active = well fitted falling curve with a large enough effect; inconclusive = small, poorly fitted or top-dose-only effect; inactive = no such curve, though single readings can be large or run the other way; tested in HEK293T cells; also: % is scaled to controls: 0 for no effect and ±100 for the full control effect; nearly all actives have a fitted effect of over 45% in size; luciferase light after 4 h
LASV entry inh: qHTS for Inhibitors of binding or entry into cells for Lassa Virus. Lassa virus pseudotype entry inhibition, cell reporter; control for the full effect not named in the record. Potency, µM (top dose mostly 37.9 µM), without a hit: at the highest dose activity change, negative = inhibition, most hits filed as inhibitors. hit rate 1.2% among 300,000. AID 540256, 2011; active means well fitted inhibition curve with a large enough effect; inconclusive means small, poorly fitted or top-dose-only effect, or effect the other way; inactive means flat fitted curve, though single readings scatter; tested in HEK293 cells; also: % is scaled to controls: 0 for no effect and ±100 for the full control effect; nearly all actives have a fitted effect of over 50% in size; luciferase read-out
Cruzain inh Det: qHTS Assay for Promiscuous and Specific Inhibitors of Cruzain (with detergent) | Cruzipain (Trypanosoma cruzi), P25779 | purified cruzain, Z-FR-AMC fluorescence, 0.01% Triton | Potency, µM, without a hit: max response, negative = inhibition, most hits filed as inhibitors | hit rate 0.43% among 200,000;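 also: plate controls were neutral wells for no effect and buffer without enzyme for full effect; nearly all actives have a fitted effect of over 40% in size; top concentration of the series not given in the record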
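Compounds were screened in titration against cruzain (1.5 nM) with 0.01% Triton X-100 to counter colloidal aggregation. Activity was the AMC fluorescence increase over 60 s after adding 2 uM Z-FR-AMC at pH 5.5.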
Starred values were filed as active, the others as inactive; ? = inconclusive; / = not tested or not shown; & = joins results of further samples; [ ] = dose if it differs, or a comment. Unless noted, calls follow the shape of the dose curve; as a rule, active = well fitted curve in the direction sought with a large enough effect; inconclusive = small, poorly fitted or top-dose-only effect, or another doubt; inactive = no such curve, though single readings can be large; an effect the other way counts as inactive or inconclusive. Potency is read from the fitted curve at half-maximal effect.

SMILES	SARS PLP yeast	NS1 function inh	RE007 growth inh	Marburg entry inh	Cruzain noTriton	2A StopGo	LASV entry inh	Cruzain inh Det
CCOCCCNc1ccc(-c2ccccc2)nn1	-8%	-9%	-26%	-6%	-6%	47%[activator]	?	-3.4%
COc1ccc2cc(C(=O)C3CCCN(C(=O)/C=C/c4ccccn4)C3)ccc2c1 (stereo not drawn)	18%	4%	6%	4%[46.1 µM]	/	0%	6%	/
Cc1ccc(C)c(N2CCN(S(=O)(=O)c3ccc4c(c3)NC(=O)CO4)CC2)c1	-4%	-36%	0%	/	/	-24%	/	/
Cc1ccc(C)c(N2CCN(C(=O)CN3C(=S)NC(C)(C)CC3C)CC2)c1 (stereo not drawn)	-1%	/	-12%	-3%	/	-29%	?	/
O=C(NC1C=CS(=O)(=O)C1)c1ccccc1 (stereo not drawn)	1%	4%	-5%	14%[46.1 µM]	/	-7%	-6%[46.1 µM]	/
COc1cc(/C=C/C(=O)OC(C)C(=O)Nc2ccc(Cl)cn2)ccc1OC(F)F (stereo not drawn)	-7%	/	-7%	?	/	?	-7%	/
O=C(NC(C(=O)c1ccccc1)c1ccccc1)c1ccccc1 (stereo not drawn)	/	/	2%	?	/	14%	-25%[46.1 µM]	/
CN1CCCc2cc(C#N)c(=O)[nH]c21	4%	-2%	-13%	-7%	?	3%	-1%	?
Cc1ccc(C(=O)OCC(=O)NC2CCCC2)cc1	1%	1%	5%	/	/	41%[activator]	/	/
CCN(CC)C(=O)/C(=C\c1ccncc1)NC(=O)c1ccccc1	1%	1%	4%	16%[46.1 µM]	/	27%	16%	/
O=C1CC(c2ccccc2)Cc2nc(N3CCc4ccccc43)ncc21 (stereo not drawn)	/	13%	6%	-4%	/	/	?	/
COc1ccc(N(CC(=O)NCc2ccc(C)cc2)S(=O)(=O)c2c(C)nn(C)c2C)cc1	22%	-10%	5%	-14%&-8%	?	-14%	?	-3.0%
CCN(CCNc1ccc(Cl)cc1[N+](=O)[O-])C(=O)c1cc([N+](=O)[O-])c(N(C)C)cc1OC	-1%	-1%	-9%	?	?	49%[activator]	7%	-3.5%
O=C(OCCCCN1C(=O)c2ccccc2C1=O)c1ccc(Br)o1	-8%	-58%	-10%	?	-1%	-3%	?	-2.7%
Cc1ccccc1S(=O)(=O)/N=C(/c1ccccc1)N1CCOCC1	1%	-2%	15%	?	/	6%	-25%	/
COC(=O)c1ccccc1NC(=S)N(Cc1ccc2c(c1)OCO2)Cc1cc2ccc(C)cc2[nH]c1=O	21%	?	8%	?	?	-14%	-31%	-4.8%
CC1CCN(CC(=O)c2ccccc2Cl)CC1	-9%	8%	-1%	27%	-10%	1%	16%	-2.3%
O=C(Nc1ccc(Cl)cc1)C1CC2CCCC(C1)C2=O (stereo not drawn)	1%	-4%	7%	11%	8%	22%	4%	0.7%
COc1ccc(/C=C/C(=O)NC2CCCCC2C)cc1 (stereo not drawn)	1%	-23%	-16%	?	/	21%	19%[46.1 µM]	/
O=C(NCCC1=CCCCC1)C(=O)NCC1OCCCN1S(=O)(=O)c1cc(F)ccc1F (stereo not drawn)	-1%	/	-5%	-18%	/	-13%	-27%	/
CCOC(=O)c1ccc(N(C(=O)c2ccco2)C(C(=O)NC2CCCCC2)c2ccncc2)cc1 (stereo not drawn)	3%	2%	-3%	?	/	11%	/	/
COc1ccccc1C1CC(c2c(-c3ccccc3)c3cc(Cl)ccc3[nH]c2=O)=NN1S(C)(=O)=O (stereo not drawn)	4%	26%	1%	?	?	?	?	-1.7%
COC(=O)c1cc2occc2n1CC(=O)Nc1ccc(OC)c(OC)c1	5%	-2%	-3%	1%	7%	/	9%	-0.7%
Cc1ccc(CNS(=O)(=O)c2cc3c4c(c2)C(C)C(=O)N4CCC3)cc1 (stereo not drawn)	-5%	12%	-2%	/	/	-4%	/	/
CCCNC(=O)CCCCn1c(=S)[nH]c2c([nH]c3ccc(OC)cc32)c1=O	-3%	/	1%	2%	/	-17%	3%	/
C[C@]1(C(=O)NCc2cc(F)cc(C(F)(F)F)c2)C=C[C@@H](Cc2ccccc2)N1C(=O)c1ccccc1	-28%	11%	-15%	-25%	8%&10%	-4%	-12%	-6.3%&-13%
Cc1ccc2oc(=O)n(Cc3ccc(F)cc3)c2c1	0%	0%	1%	-3%	/	6%	3%	/
CC1=CC2=NC(=O)/C(=C/c3cccs3)C(=N)N2O1	-1%	-5%	-11%	-7%[46.1 µM]	/	49%[activator]	-1%	/
COC(=O)c1c(NC(=O)C(C)C)sc(C(=O)N2CCOCC2)c1C	0%	1%	-13%	-13%[46.1 µM]	/	4%	-6%[46.1 µM]	/
CC(C)[C@@H](C(=O)N1CCNCC1)n1cc(CCO)nn1	1%	0%	4%	/	/	0%	/	/
Cc1ccc(NC(=S)N2CCN(c3ncccn3)CC2)c(C)c1	-10%	-4%	6%	12%	16%	1%	4%	-2.6%
COC(=O)c1ccc(C(=O)OC)c(NS(=O)(=O)c2ccc(NC(C)=O)cc2)c1	10%	1%	13%	7%	10%	/	3%	-10%
Cc1[nH][nH]c(=O)c1C(c1cc([N+](=O)[O-])ccc1O)c1c(C)[nH][nH]c1=O	26%	-6%	-3%	29%	-2%	-20%	-3%	-3.0%
Cc1cc(Nc2cccc(Cl)c2Cl)n2ncnc2n1	-3%	-3%	10%	-8%[46.1 µM]	/	-15%	3%[46.1 µM]	/
Cn1nc(C(=O)NCCc2ccc(S(N)(=O)=O)cc2)c2ccccc2c1=O	0%	5%	6%	/	/	1%	/	/
O=C(COC(=O)c1cncc(Br)c1)NC1CCCCC1	-2%	/	7%	14%[46.1 µM]	/	-6%	-2%[46.1 µM]	/
COc1ccc2nc(N3C(=O)C(O)=C(C(=O)c4ccco4)C3c3ccccc3OC)sc2c1 (stereo not drawn)	-4%	?	0%	/	/	-2%	/	/
Cc1nn(C)c(C(=O)Nc2ccc(Cn3cccn3)cc2)c1[N+](=O)[O-]	6%	8%	5%	-23%	-3%	-22%	13%	2.1%
c1ccc(-n2nnnc2NC2CCCCCC2)cc1	12%	10%	-1%	-17%	-2%	/	-26%	7.9%
CS(=O)(=O)c1nc2ccccc2n1Cc1ccccc1	1%	-13%	9%	-7%	-5%	4%	-10%	3.2%

In another format: results already given
molecule,SARS PLP yeast,NS1 function inh,RE007 growth inh,Marburg entry inh,Cruzain noTriton,2A StopGo,LASV entry inh,Cruzain inh Det
Cn1nc(C(=O)NCCc2ccc(S(N)(=O)=O)cc2)c2ccccc2c1=O,0%,5%,6%,/,/,1%,/,/
O=C(COC(=O)c1cncc(Br)c1)NC1CCCCC1,-2%,/,7%,14%[46.1 µM],/,-6%,-2%[46.1 µM],/
COc1ccc2nc(N3C(=O)C(O)=C(C(=O)c4ccco4)C3c3ccccc3OC)sc2c1 (stereo not drawn),-4%,?,0%,/,/,-2%,/,/
Cc1nn(C)c(C(=O)Nc2ccc(Cn3cccn3)cc2)c1[N+](=O)[O-],6%,8%,5%,-23%,-3%,-22%,13%,2.1%
c1ccc(-n2nnnc2NC2CCCCCC2)cc1,12%,10%,-1%,-17%,-2%,/,-26%,7.9%

(cont.)
SMILES	SARS PLP yeast	NS1 function inh	RE007 growth inh	Marburg entry inh	Cruzain noTriton	2A StopGo	LASV entry inh	Cruzain inh Det
O=C1/C(=C/c2ccncc2)SC(=S)N1Cc1ccccc1	-2%	-2%	-6%	11µM*	/	?	-26%	/
COc1ccccc1C(=O)NCC(c1ccco1)N1CCc2ccccc21 (stereo not drawn)	0%	/	-13%	?	/	-11%	-30%	/
CC(C)c1c(C(=O)N/N=C/c2ccoc2)nnn1-c1nonc1N	-3%	0%	7%	/	/	31%[activator]	/	/
CCN(CC)S(=O)(=O)c1ccc(C(=O)NNC(=O)c2csc(N3CCOCC3)n2)cc1	0%	/	-10%	6%	/	-11%	-7%	/
Cc1ccc(S(=O)(=O)NNC(=O)c2ccncc2)cc1	24%	6%	23%	?	13%	27%	0%	5.3%
O=S(=O)(Cc1ccccc1)Cc1cnc(Cl)s1	5%	-2%	19%	0%[46.1 µM]	/	4%	-4%	/
O=c1c(=O)n(-c2ccccc2)ccn1Cc1c(F)cccc1Cl	/	/	/	/	-1%	32%[activator]	-8%[46.1 µM]	-2.2%
COC(=O)c1ccccc1NC(=O)Nc1cc(C)ccn1	0%	1%	-15%	/	/	16%	/	/
CC(C)CCNC(=O)CN1C(=O)COc2ccc(S(=O)(=O)N3CCOCC3)cc21	/	/	/	3%[46.1 µM]	-8%	?	-7%[46.1 µM]	1.6%
COc1ccc(NC(=O)COC(=O)c2ccc(OCc3ccc(Cl)cc3Cl)c(OC)c2)c(OC)c1	8%	-6%	-4%	-27%	?	12%	-12%	-2.1%
O=C(c1ccco1)N1CCN(S(=O)(=O)c2ccc(Cl)cc2)CC1	-2%	-22%	6%	5%	/	-30%	4%	/
CCN1CCN(C(=S)Nc2ccc(Cl)c(Cl)c2)CC1	5%	-13%	4%	13%	-3%	32%[activator]	-13%	-4.5%
COc1ccccc1OCCn1c(C(C)Oc2ccccc2)nc2ccccc21 (stereo not drawn)	/	/	/	?	3%	-18%	?	-6.9%
O=C(CNC(=O)c1cccs1)OCC(=O)c1ccc2ccccc2c1	-2%	-13%	-29%	3%	-18%	-1%	7%	?
CCOc1ccc(CCNC(=O)c2cn(CC)c3ccc(S(=O)(=O)N4CCCCCC4)cc3c2=O)cc1OCC	/	/	/	-17%[46.1 µM]	?	-5%	-12%[46.1 µM]	-6.1%

Source: PubChem
